Bioassay records (PubChem BioAssay)
FGF22 binding: shifts melting point of recombinant human FGF22; Q9HCT0; recombinant FGF22 thermal shift, SYPRO orange fluorescence; percent of sucrose octasulfate shift, DMSO zero; calls only at 9.99 µM; 340,000 tested, 1.5% active; AID 651658;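 active means melting point raised past a set limit in the mean and every replicate; three in four hits are not shown here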
Target sequence (Q9HCT0 whole entry, looked up): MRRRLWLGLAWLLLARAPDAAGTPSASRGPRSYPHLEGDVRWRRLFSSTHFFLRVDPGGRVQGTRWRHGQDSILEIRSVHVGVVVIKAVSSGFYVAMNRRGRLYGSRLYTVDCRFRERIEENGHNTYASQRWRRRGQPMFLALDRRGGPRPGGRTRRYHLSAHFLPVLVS
MLL AF4-AF9 inh: blocks AF4 peptide binding to human AF9; AlphaScreen, biotin-AF4 peptide binding to FLAG-AF9; inhibition, % at 10 µM; 350,000 tested, 0.47% active; P42568;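 active means every replicate reaching a set inhibition limit, whatever the replicate mean, cut at about 25% in these data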;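 further: 0% = plate neutral control median and 100% = total signal loss; the record names both 10 and 1 µM as test concentration; the first replicate is given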
Target sequence (P42568 whole entry, looked up): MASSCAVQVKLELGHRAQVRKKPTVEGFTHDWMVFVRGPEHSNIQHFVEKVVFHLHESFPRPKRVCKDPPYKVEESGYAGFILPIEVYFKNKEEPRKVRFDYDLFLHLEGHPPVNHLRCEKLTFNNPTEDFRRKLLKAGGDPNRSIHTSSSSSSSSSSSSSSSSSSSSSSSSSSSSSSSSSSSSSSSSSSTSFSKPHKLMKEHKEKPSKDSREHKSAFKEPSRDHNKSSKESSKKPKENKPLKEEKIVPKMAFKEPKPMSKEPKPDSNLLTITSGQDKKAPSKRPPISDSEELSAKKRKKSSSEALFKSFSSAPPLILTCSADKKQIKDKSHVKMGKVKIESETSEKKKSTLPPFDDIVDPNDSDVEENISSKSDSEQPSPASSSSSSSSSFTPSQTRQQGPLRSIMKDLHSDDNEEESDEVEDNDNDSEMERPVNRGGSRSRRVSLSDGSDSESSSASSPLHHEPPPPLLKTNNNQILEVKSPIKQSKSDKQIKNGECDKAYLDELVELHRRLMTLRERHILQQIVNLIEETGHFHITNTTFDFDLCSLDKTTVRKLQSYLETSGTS
Starred values were filed as active, the others as inactive.

Screening C[C@H]1CN([C@@H](C)CO)C(=O)Cc2cc(NS(=O)(=O)c3cccs3)ccc2O[C@H]1CN(C)S(=O)(=O)c1ccccc1 returned FGF22 binding inactive and MLL AF4-AF9 inh 1.2.
For O=C(Cc1ccccn1)N[C@@H]1CC[C@H](CCn2cc(-c3ccccc3)nn2)O[C@H]1CO the results were FGF22 binding inactive and MLL AF4-AF9 inh 4.2.
For COc1ccc2c3c([nH]c2c1)[C@H](CO)N(C(=O)c1ccncc1)CC31CN(C(=O)Nc2cccc(F)c2)C1 the results were FGF22 binding inactive and MLL AF4-AF9 inh 1.7.
For C[C@@H]1CN([C@@H](C)CO)C(=O)Cc2cc(NC(=O)Nc3ccc(F)cc3)ccc2O[C@@H]1CN(C)C the results were FGF22 binding inactive and MLL AF4-AF9 inh -0.8.
For Cc1ccc(S(=O)(=O)N2CC[C@H]3[C@H](CO)Nc4ccc(-c5ccccc5F)cc4[C@H]32)cc1 the results were FGF22 binding inactive and MLL AF4-AF9 inh 2.1.
CCN1[C@@H]2Cn3c(ccc(-c4ccccc4F)c3=O)[C@H]1[C@@H](C(=O)NCc1ccc(F)cc1)[C@@H]2CO was read as FGF22 binding inactive and MLL AF4-AF9 inh -1.1.
CCCN1[C@@H]2Cn3c(ccc(-c4cccc(F)c4)c3=O)[C@H]1[C@@H](C(=O)NCC1CC1)[C@@H]2CO was read as FGF22 binding inactive and MLL AF4-AF9 inh -0.6.
Cc1noc(C)c1S(=O)(=O)Nc1ccc2c(c1)CC(=O)N([C@@H](C)CO)C[C@H](C)[C@@H](CN(C)C(=O)Nc1ccc(F)cc1)O2 was read as FGF22 binding inactive and MLL AF4-AF9 inh -0.8.
Screening CNC[C@H]1Oc2ccc(NS(=O)(=O)c3cn(C)cn3)cc2C(=O)N([C@H](C)CO)C[C@H]1C returned FGF22 binding inactive and MLL AF4-AF9 inh -2.8.
Cc1ccc(S(=O)(=O)N(C)C[C@H]2Oc3ccc(NC(=O)Cn4cnnn4)cc3CC(=O)N([C@@H](C)CO)C[C@H]2C)cc1 was read as FGF22 binding inactive and MLL AF4-AF9 inh 5.1.
For C[C@@H]1CN([C@@H](C)CO)C(=O)c2cc(NC(=O)NC3CCCCC3)ccc2O[C@@H](C)CCCCO[C@H]1CN(C)C(=O)CCC(F)(F)F the results were FGF22 binding inactive and MLL AF4-AF9 inh -3.1.
For Cc1ccc(NC(=O)N2CC(C)OC(C)C2)cc1[N+](=O)[O-] (stereo not given) the results were FGF22 binding inactive and MLL AF4-AF9 inh -0.1.
For COCC(=O)Nc1ccc2c(c1)OC[C@@H](C)N(CC1CCCCC1)C[C@H](C)[C@@H](OC)CN(C)C2=O the results were FGF22 binding inactive and MLL AF4-AF9 inh 3.9.
For C[C@@H]1CN([C@@H](C)CO)S(=O)(=O)c2ccc(-c3cccnc3)cc2O[C@@H]1CN(C)C(=O)CN(C)C the results were FGF22 binding inactive and MLL AF4-AF9 inh -1.0.
Screening COC(=O)C[C@H]1CC[C@H]2[C@@H](COc3ccc(NC(=O)c4cccc(Cl)c4)cc3C(=O)N2C)O1 returned FGF22 binding inactive and MLL AF4-AF9 inh -1.4.
`CC=Cc1ccc2n(c1=O)C[C@H]1[C@H](CO)[C@@H](C(=O)NCCc3ccncc3)[C@@H]2N1Cc1ccncc1` (mixture of isomers) gave FGF22 binding inactive and MLL AF4-AF9 inh -1.0.
Screening C[C@@H]1CN([C@H](C)CO)C(=O)c2cc(-c3ccncc3)cnc2O[C@H]1CN(C)C(=O)c1ccncc1 returned FGF22 binding inactive and MLL AF4-AF9 inh -4.9.
C[C@@H]1CN([C@@H](C)CO)C(=O)c2cc(NC(=O)C3CCCCC3)ccc2O[C@@H]1CN(C)S(=O)(=O)c1ccccc1 was read as FGF22 binding inactive and MLL AF4-AF9 inh -4.2.
Screening C[C@H](CO)N1C[C@H](C)[C@H](CN(C)S(=O)(=O)c2ccc(Cl)cc2)Oc2ccc(NC(=O)Nc3ccc4c(c3)OCO4)cc2C1=O returned FGF22 binding inactive and MLL AF4-AF9 inh 3.5.
For Cc1ccc(-c2ccc([C@@H]3[C@@H](CO)N4CCCCN(S(=O)(=O)c5ccccc5C)C[C@@H]34)cc2)cc1 the results were FGF22 binding inactive and MLL AF4-AF9 inh -1.9.

Some of these compounds in order of length of the SMILES, smallest number first.
For Cc1ccc(S(=O)(=O)N2CC[C@H]3[C@H](CO)Nc4ccc(-c5ccccc5F)cc4[C@H]32)cc1 the results were FGF22 binding inactive and MLL AF4-AF9 inh 2.1.
Screening C[C@@H]1CN([C@H](C)CO)C(=O)c2cc(-c3ccncc3)cnc2O[C@H]1CN(C)C(=O)c1ccncc1 returned FGF22 binding inactive and MLL AF4-AF9 inh -4.9.
For C[C@@H]1CN([C@@H](C)CO)S(=O)(=O)c2ccc(-c3cccnc3)cc2O[C@@H]1CN(C)C(=O)CN(C)C the results were FGF22 binding inactive and MLL AF4-AF9 inh -1.0.
Cc1ccc(S(=O)(=O)N(C)C[C@H]2Oc3ccc(NC(=O)Cn4cnnn4)cc3CC(=O)N([C@@H](C)CO)C[C@H]2C)cc1 was read as FGF22 binding inactive and MLL AF4-AF9 inh 5.1.
Cc1noc(C)c1S(=O)(=O)Nc1ccc2c(c1)CC(=O)N([C@@H](C)CO)C[C@H](C)[C@@H](CN(C)C(=O)Nc1ccc(F)cc1)O2 was read as FGF22 binding inactive and MLL AF4-AF9 inh -0.8.

More structures:
Screening CN(C)CC(=O)N[C@H]1CC[C@@H](CCn2cc(CN(C)C)nn2)O[C@@H]1CO returned FGF22 binding inactive and MLL AF4-AF9 inh -6.9.
C[C@@H]1CN([C@H](C)CO)C(=O)c2cccc(NC(=O)C3CCOCC3)c2O[C@H]1CN(C)CC1CC1 was read as FGF22 binding inactive and MLL AF4-AF9 inh -4.5.
C[C@@H]1CCCCO[C@H](CN(C)Cc2ccc(C(=O)Nc3ccccc3N)cc2)[C@@H](C)CN([C@H](C)CO)C(=O)c2cc(NS(=O)(=O)c3cccs3)ccc2O1 was read as FGF22 binding inactive and MLL AF4-AF9 inh -4.9.
For CCOC(=O)C1=C(C(=O)OCC)C2N(Cc3ccc(C#N)cc3)c3ccccc3[C@@]23C[C@@H](C(=O)OC)N(S(=O)(=O)c2ccccc2)C3=N1 (stereo not given in full) the results were FGF22 binding inactive and MLL AF4-AF9 inh 0.2.
`COCC#Cc1ccc2c(c1)O[C@H](CN(C)C(=O)NC(C)C)[C@H](C)CN([C@@H](C)CO)S2(=O)=O` gave FGF22 binding inactive and MLL AF4-AF9 inh -1.0.
For CCC(=O)Nc1ccc2c(c1)C(=O)N(C)C[C@@H](OC)[C@@H](C)CN(C(=O)NC(C)C)[C@@H](C)CO2 the results were FGF22 binding inactive and MLL AF4-AF9 inh -1.7.
COCc1cn(CC[C@@H]2CC[C@@H](NC(=O)Nc3ccccc3)[C@H](CO)O2)nn1 was read as FGF22 binding inactive and MLL AF4-AF9 inh -11.8.
`CCCC(=O)Nc1ccc2c(c1)C(=O)N(C)C[C@@H](OC)[C@@H](C)CN(Cc1ccc(-c3ccccn3)cc1)[C@@H](C)CO2` gave FGF22 binding inactive and MLL AF4-AF9 inh 1.4.
Screening O=C(N[C@@H]1CC[C@H](CCn2cc(C3(O)CCCC3)nn2)O[C@H]1CO)c1ccccc1F returned FGF22 binding inactive and MLL AF4-AF9 inh -1.0.
For N#C[C@@H]1[C@@H](c2ccc(C#CCC3CCCC3)cc2)[C@H](CO)N1C(=O)CN1CCOCC1 the results were FGF22 binding inactive and MLL AF4-AF9 inh 4.0.
`CC=Cc1ccc2n(c1=O)C[C@@H]1[C@@H](CO)[C@H](C(=O)N[C@H](C)c3ccccc3)N(C(=O)c3ccccn3)[C@H]21` (mixture of isomers) gave FGF22 binding inactive and MLL AF4-AF9 inh 0.9.
`CCC(=O)Nc1ccc2c(c1)OC[C@H](C)N(C(=O)Cc1ccccn1)C[C@H](C)[C@@H](OC)CN(C)C2=O` gave FGF22 binding inactive and MLL AF4-AF9 inh -2.5.
Screening C[C@H]1CCCCO[C@H](CN(C)CC2CCCCC2)[C@@H](C)CN([C@@H](C)CO)C(=O)c2cc(NC(=O)Nc3cccc4ccccc34)ccc2O1 returned FGF22 binding inactive and MLL AF4-AF9 inh 16.0.
Screening C[C@@H]1CN([C@H](C)CO)S(=O)(=O)c2ccc(C#CC3(O)CCCC3)cc2O[C@@H]1CN(C)CC1CC1 returned FGF22 binding inactive and MLL AF4-AF9 inh 0.1.
`C[C@@H]1CN([C@@H](C)CO)C(=O)Cc2cc(NC(=O)C3CC3)ccc2O[C@H]1CN(C)S(=O)(=O)c1cn(C)cn1` gave FGF22 binding inactive and MLL AF4-AF9 inh -1.9.
Screening C[C@@H]1CCCCO[C@H](CN(C)C(=O)c2ccncc2)[C@@H](C)CN([C@H](C)CO)C(=O)c2cc(NS(C)(=O)=O)ccc2O1 returned FGF22 binding inactive and MLL AF4-AF9 inh -0.6.
Screening COC(=O)c1cc(=O)n(Cc2ccco2)c(=Nc2ccccc2)s1 returned FGF22 binding inactive and MLL AF4-AF9 inh 9.6.
C[C@H](CO)N1C[C@H](C)[C@@H](CN(C)C(=O)Nc2ccc3c(c2)OCO3)Oc2ncc(-c3cccnc3)cc2C1=O was read as FGF22 binding inactive and MLL AF4-AF9 inh -4.8.
For CC(C)C(=O)Nc1ccc2c(c1)C(=O)N(C)[C@H]1CC[C@@H](CC(=O)NC3CCCC3)O[C@@H]1CO2 the results were FGF22 binding inactive and MLL AF4-AF9 inh 2.7.
`Cc1noc(C)c1S(=O)(=O)Nc1ccc2c(c1)CC(=O)N([C@@H](C)CO)C[C@@H](C)[C@H](CN(C)S(=O)(=O)c1cn(C)cn1)O2` gave FGF22 binding inactive and MLL AF4-AF9 inh -1.7.
Screening Cc1cc(C(=O)Nc2cccc3c2O[C@H](CN(C)Cc2ccccc2)[C@@H](C)CN([C@H](C)CO)C3=O)n(C)n1 returned FGF22 binding inactive and MLL AF4-AF9 inh 0.1.
CNC[C@H]1OCCCC[C@H](C)Oc2ccc(NS(=O)(=O)c3ccc(OC)cc3)cc2C(=O)N([C@H](C)CO)C[C@@H]1C was read as FGF22 binding inactive and MLL AF4-AF9 inh 0.8.
CCCNC(=O)N1C[C@H](C)[C@@H](OC)CN(C)C(=O)c2cc(NC(C)=O)ccc2OC[C@@H]1C was read as FGF22 binding inactive and MLL AF4-AF9 inh -3.9.
Screening C[C@@H](NC(=O)C[C@H]1CC[C@@H]2[C@H](COC[C@H](O)CN2C(=O)Nc2ccccc2)O1)c1ccccc1 returned FGF22 binding inactive and MLL AF4-AF9 inh -2.6.
O=C(Cc1ccccn1)N[C@H]1CC[C@H](CCn2cc(-c3cccnc3)nn2)O[C@H]1CO was read as FGF22 binding inactive and MLL AF4-AF9 inh -1.3.
COc1ccc(CNS(=O)(=O)c2cc(Br)ccc2Br)cc1 was read as FGF22 binding inactive and MLL AF4-AF9 inh -2.1.
For O=C(C1CCCCC1)N1CC2(C1)[C@H](c1ccccc1)[C@@H](CO)N2Cc1cncnc1 the results were FGF22 binding inactive and MLL AF4-AF9 inh -1.5.
For C[C@@H]1CN([C@@H](C)CO)C(=O)c2cc(NS(=O)(=O)c3ccc(Cl)cc3)ccc2O[C@@H](C)CCCCO[C@@H]1CN(C)C(=O)c1ccccc1 the results were FGF22 binding inactive and MLL AF4-AF9 inh -1.3.
C[C@@H]1CN([C@@H](C)CO)C(=O)c2cccc(NS(C)(=O)=O)c2O[C@@H]1CN(C)S(=O)(=O)c1ccc(Cl)cc1 was read as FGF22 binding inactive and MLL AF4-AF9 inh -2.5.
COc1ccc(S(=O)(=O)N(C)C[C@H]2OCCCC[C@@H](C)Oc3ccc(NS(=O)(=O)c4ccc(C)cc4)cc3C(=O)N([C@H](C)CO)C[C@@H]2C)cc1 was read as FGF22 binding inactive and MLL AF4-AF9 inh -0.7.
`N#C[C@H]1[C@H](c2ccc(C3=CCCC3)cc2)[C@@H](CO)N1C(=O)C1CCOCC1` gave FGF22 binding inactive and MLL AF4-AF9 inh -2.7.
For COc1ccc(S(=O)(=O)N(C)C[C@@H]2OCCCC[C@H](C)Oc3ccc(NC(=O)CCC(F)(F)F)cc3C(=O)N([C@H](C)CO)C[C@H]2C)cc1 the results were FGF22 binding inactive and MLL AF4-AF9 inh -1.8.
For Cc1noc(C)c1NC(=O)N[C@H]1C=C[C@@H](CC(=O)NCc2ccc(Cl)c(Cl)c2)O[C@@H]1CO the results were FGF22 binding inactive and MLL AF4-AF9 inh -2.8.
For COc1ccc(CN(C)C[C@H]2OCCCC[C@@H](C)Oc3ccc(NS(C)(=O)=O)cc3C(=O)N([C@H](C)CO)C[C@H]2C)cc1 the results were FGF22 binding inactive and MLL AF4-AF9 inh -1.4.
`C[C@H]1CN([C@@H](C)CO)C(=O)Cc2cc(NC(=O)CCC(F)(F)F)ccc2O[C@H]1CN(C)S(=O)(=O)c1cccs1` gave FGF22 binding inactive and MLL AF4-AF9 inh 0.3.
Screening C[C@H]1CN([C@@H](C)CO)C(=O)c2cc(NC(=O)Nc3ccc(F)cc3)ccc2O[C@H]1CN(C)S(C)(=O)=O returned FGF22 binding inactive and MLL AF4-AF9 inh -4.3.
Screening C[C@@H]1CCCCO[C@H](CN(C)C(=O)Nc2ccc(F)cc2)[C@H](C)CN([C@@H](C)CO)C(=O)c2cc(NC(=O)C3CCCCC3)ccc2O1 returned FGF22 binding inactive and MLL AF4-AF9 inh -3.8.
For C[C@@H]1CN([C@H](C)CO)S(=O)(=O)c2ccc(C#Cc3ccncc3)cc2O[C@@H]1CN(C)C(=O)C1CCC1 the results were FGF22 binding inactive and MLL AF4-AF9 inh -1.9.
For Cc1noc(C)c1S(=O)(=O)Nc1ccc2c(c1)C(=O)N([C@@H](C)CO)C[C@H](C)[C@@H](CN(C)C)O2 the results were FGF22 binding inactive and MLL AF4-AF9 inh -3.2.
O=C(C[C@H]1CC[C@H]2[C@@H](COC[C@H](O)CN2C(=O)c2ccccc2F)O1)NCc1ccc(Cl)cc1 was read as FGF22 binding inactive and MLL AF4-AF9 inh -0.9.
Screening CS(=O)(=O)Nc1ccc2c(c1)[C@H]1C[C@@H](CC(=O)NCc3cccc(F)c3)O[C@H](CO)[C@H]1O2 returned FGF22 binding inactive and MLL AF4-AF9 inh 0.2.

A portion of the library. The share of hits here may be higher or lower than overall.
